Hedgehog inh: Sonic Hedgehog pathway inhibition; AID 2313; hit rate 2.1% among 22,000; Shh-LIGHT2 Gli-luciferase reporter, 30 h; inhibition, % (no concentration beside the values);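 active = replicate mean of 65% or more; inconclusive = mean lower but half the replicates past it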;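 note: pathway switched on by Shh-conditioned medium diluted 1 in 25 in low serum; 100 nL library stock added to about 40 µL; 0% = median of neutral wells and 100% = positive control level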
YB-1 expr inh: YB-1 expression inhibition. delta delta Cp (YB-1 minus CDIP) (no concentration beside the values). AID 434959. hit rate 0.37% among 30,000. U2OS, qRT-PCR YB-1 vs CDIP delta delta Cp, 16 h; active compounds read high; zero = DMSO, each unit about twofold;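 active = delta delta Cp rounded down to an integer at or above 3, about 3 SD of DMSO wells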;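 note: higher means less YB-1 transcript or more CDIP transcript relative to DMSO; stock transfer was 100 nL into about 100 µL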
PD-1 reverse act: reversal of PD-1 mediated T-cell inhibition. primary human CD4 T cells, PD-L1 beads, CellTiter-Glo 96 h. activation, % (no concentration beside the values). AID 2316. 29,000 tested, under 10 active;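 active = replicate mean of 50% or more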;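 note: 0% = median vehicle wells and 100% = positive control; 100 nL library stock added to about 50 µL; numbers are from one replicate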
MITF inh: blocks MITF activity. TRPM1 promoter luciferase, luminescence, 24 h. hit rate 0.28% among 37,000. inhibition, % (test concentration not listed);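 active = most replicates at 85% or more, or half of them and the mean; inconclusive = half reach 85% but not the mean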;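 note: human melanocyte line stably carrying TRPM1 promoter luciferase reporter; 0% = vehicle wells and 100% = a positive control; the first replicate is given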
* = called active by the depositor; ? = inconclusive; · = no result given.

The line under a structure holds: Hedgehog inh | YB-1 expr inh | PD-1 reverse act | MITF inh
> C[C@@H]1CN([C@@H](C)CO)C(=O)Cc2cc(NS(=O)(=O)c3cccs3)ccc2O[C@@H]1CN(C)S(C)(=O)=O
  -6 | -0.2 | -0.4 | -8
> Cc1noc(C)c1NC(=O)Nc1ccc2c(c1)CC(=O)N([C@@H](C)CO)C[C@H](C)[C@@H](CN(C)C(=O)NC1CCCCC1)O2
  -1 | -0.31 | 0.2 | 3
> CNC[C@H]1Oc2ccc(NC(=O)CCN3CCOCC3)cc2C(=O)N([C@H](C)CO)C[C@@H]1C
  -22 | -0.17 | -0.7 | -9
> Oc1cc2c(cc1O)C(c1ccccc1)CNCC2 (configuration not stated)
  -14 | -0.65 | · | -3
> C[C@H](CO)N1C[C@H](C)[C@H](CN(C)C(=O)Nc2ccc3c(c2)OCO3)Oc2c(NS(=O)(=O)c3ccccc3)cccc2C1=O
  -49 | 0.59 | · | -4
> C[C@H]1CN([C@@H](C)CO)C(=O)Cc2cc(NC(=O)Nc3ccc4c(c3)OCO4)ccc2O[C@H]1CN(C)C(=O)Nc1ccccc1
  -54 | 0.055 | 0.7 | -5
> C[C@H]1CN([C@@H](C)CO)C(=O)c2cccc(NC(=O)Nc3ccc(F)cc3)c2O[C@H]1CN(C)S(=O)(=O)c1cn(C)cn1
  -5 | -0.19 | 2.5 | -4
> CCn1c(SCC(=O)Nc2cccc(F)c2)nnc1-c1ccc(C)cc1
  · | · | 0.0 | 33
> C[C@H]1CN([C@@H](C)CO)C(=O)Cc2cc(NC(=O)NC3CCCCC3)ccc2O[C@H]1CN(C)C(=O)Nc1ccc(C(F)(F)F)cc1
  -30 | -0.72 | -2.3 | -16
> C[C@@H]1CN([C@@H](C)CO)C(=O)c2cccc(NS(=O)(=O)c3ccc(Cl)cc3)c2O[C@@H]1CN(C)Cc1ccc(C(F)(F)F)cc1
  46 | -0.17 | 0.0 | -3
> C[C@@H]1CN([C@H](C)CO)C(=O)c2cccc(NC(=O)Nc3ccc(C(F)(F)F)cc3)c2O[C@H]1CN(C)S(=O)(=O)c1cccs1
  11 | -0.74 | -2.8 | 16
> CCCCN1C(=O)[C@H]2Cc3c([nH]c4ccccc34)[C@H](c3ccc(OC)cc3)N2C1=O
  79* | -1.1 | -1.4 | -5
> C[C@@H]1CN([C@@H](C)CO)C(=O)c2cccc(NC(=O)Nc3ccc(F)cc3)c2O[C@H]1CN(C)S(=O)(=O)c1ccc(F)cc1
  -52 | 0.081 | 0.0 | -6
> C[C@H]1CN([C@@H](C)CO)C(=O)c2cccc(NC(=O)C3CCCCC3)c2O[C@H]1CN(C)CC1CCCCC1
  35 | -0.28 | 0.1 | 7
> Cc1ccc(S(=O)(=O)N(C)C[C@H]2Oc3c(NC(=O)Nc4ccccc4)cccc3C(=O)N([C@H](C)CO)C[C@@H]2C)cc1
  -25 | -0.51 | 1.9 | 1
> c1ccc(CNc2nc3ccccc3n2CCN2CCCCC2)nc1
  · | · | 1.0 | -10
> COc1ccc(NC(=O)Nc2ccc3c(c2)C(=O)N([C@H](C)CO)C[C@H](C)[C@H](CN(C)Cc2ccc(-c4ccccc4)cc2)O3)cc1
  · | -0.39 | 0.1 | 9
> C[C@H]1CN([C@@H](C)CO)C(=O)c2cc(NC(=O)CCCCCC(=O)Nc3ccccc3N)ccc2O[C@@H]1CN(C)S(=O)(=O)c1ccc(F)cc1
  · | -0.25 | 1.2 | -5
> C[C@H]1CN([C@@H](C)CO)C(=O)Cc2cc(NC(=O)Nc3ccc4c(c3)OCO4)ccc2O[C@@H]1CN(C)C(=O)Nc1cccc2ccccc12
  47 | -0.25 | 1.3 | 3
> COc1ccc(CCO[C@@H]2O[C@H](CO[C@@H]3OC[C@H](O)[C@H](O)[C@H]3O)[C@@H](OC(=O)/C=C/c3ccc(O)c(OC)c3)[C@H](O[C@@H]3O[C@@H](C)[C@H](O)[C@@H](O)[C@H]3O)[C@H]2O)cc1O
  -17 | 0.67 | 1.5 | 5
> COc1ccc(S(=O)(=O)Nc2ccc3c(c2)C(=O)N([C@@H](C)CO)C[C@@H](C)[C@@H](CN(C)C(=O)Nc2cccc4ccccc24)O3)cc1
  16 | -0.39 | 1.2 | -12
> CCOc1ccccc1NC(=O)Cn1cnc2scc(-c3ccc(Cl)cc3)c2c1=O
  · | · | 0.4 | 3
> C[C@@H]1CN([C@H](C)CO)C(=O)Cc2cc(NS(C)(=O)=O)ccc2O[C@@H]1CN(C)C(=O)Nc1ccc(C(F)(F)F)cc1
  · | -0.38 | -0.6 | -1
> C[C@@H]1CN([C@@H](C)CO)C(=O)c2cc(NC(=O)CCCN(C)C)ccc2O[C@H]1CN(C)S(=O)(=O)c1ccc(Cl)cc1
  13 | 0.2 | · | -2
> Cc1ccc(C)c(NC(=O)C(C)N(c2ccc(Cl)cc2)S(C)(=O)=O)c1 (configuration not stated)
  · | · | -0.7 | -15
> Cc1ccc2ccc(C(Nc3ccccn3)c3ccc(C(C)C)cc3)c(O)c2n1 (configuration not stated)
  · | · | -14 | 24
> Cc1noc(C)c1NC(=O)N(C)C[C@@H]1Oc2c(NC(=O)CCCCCC(=O)Nc3ccccc3N)cccc2C(=O)N([C@@H](C)CO)C[C@@H]1C
  · | 0.19 | 3.9 | -5
> C[C@H]1CN([C@@H](C)CO)C(=O)c2cc(NC(=O)Nc3ccc4c(c3)OCO4)ccc2O[C@H]1CN(C)C(=O)Nc1cccc2ccccc12
  6 | -0.43 | 1.5 | 5
> CC1(C)OC2C(CO)OC(n3cnc4c(=O)[nH]cnc43)C2O1 (configuration not stated)
  9 | -0.11 | 2.0 | -19
> C[C@H]1CN([C@@H](C)CO)C(=O)c2cccc(NC(=O)c3ccncc3)c2O[C@@H]1CN(C)C(=O)NC1CCCCC1
  -12 | 0.027 | · | -2
> Cn1c(SCC(=O)Nc2cccc(C(=O)O)c2)nnc1-c1ccccc1
  · | · | 0.6 | -4
> C[C@H]1CN([C@@H](C)CO)C(=O)Cc2cc(NC(=O)Nc3ccc4c(c3)OCO4)ccc2O[C@H]1CN(C)S(=O)(=O)c1ccc(F)cc1
  -51 | -0.14 | · | 24
> Cc1ccc(S(=O)(=O)Nc2cccc3c2O[C@H](CN(C)S(=O)(=O)c2ccc(Cl)cc2)[C@@H](C)CN([C@@H](C)CO)C3=O)cc1
  23 | -0.12 | · | 1
> O=C(CSc1nnc(-c2ccccc2Cl)n1-c1ccccc1)Nc1ccc([N+](=O)[O-])cc1
  · | · | -2.1 | -13
> CCN(CC(=O)Nc1cc([N+](=O)[O-])ccc1C)S(=O)(=O)c1ccc2ccccc2c1
  · | · | 1.8 | 9
> C[C@@H]1CN([C@H](C)CO)C(=O)c2cccc(NC(=O)C3CCCCC3)c2O[C@H]1CN(C)Cc1ccncc1
  13 | -0.094 | 0.4 | 1
> CCCN(C)C[C@@H]1OCCCC[C@@H](C)Oc2ccc(NC(=O)NC3CCCCC3)cc2C(=O)N([C@H](C)CO)C[C@@H]1C
  -21 | 0.24 | · | 3
> Cc1ccc(S(=O)(=O)Nc2cccc3c2O[C@H](CN(C)Cc2ccc(Oc4ccccc4)cc2)[C@H](C)CN([C@H](C)CO)C3=O)cc1
  24 | 0.093 | -1.0 | 11
> COc1ccc(S(=O)(=O)N(C)C[C@@H]2Oc3ccc(N(C)C)cc3CC(=O)N([C@H](C)CO)C[C@@H]2C)cc1
  -15 | -0.36 | · | -7
> Cc1cc(Br)ccc1NC(=O)CSc1ncn(-c2ccccc2)n1
  · | · | 3.7 | -10
> CNC(=O)NC(=O)CSc1nnc(-c2ccco2)o1
  -15 | -0.46 | 0.3 | 5
> C[C@@H]1CN([C@H](C)CO)C(=O)c2cc(NC(=O)c3ccncc3)ccc2O[C@@H]1CN(C)Cc1ccc(C(F)(F)F)cc1
  0 | -0.46 | 0.0 | -3
> C[C@H](CO)N1C[C@H](C)[C@@H](CN(C)Cc2ccc(-c3ccccc3)cc2)Oc2c(NC(=O)Nc3cccc4ccccc34)cccc2C1=O
  36 | -0.21 | -3.3 | 28
> COc1ccc(NC(=O)N(C)C[C@@H]2Oc3ccc(NC(=O)Nc4cccc5ccccc45)cc3CC(=O)N([C@H](C)CO)C[C@H]2C)cc1
  · | 0.11 | -1.0 | -5
> O=C(/C=C/c1ccc(O)cc1)NCCc1ccc(O)cc1
  -29 | 0.36 | 1.1 | -13
> CC(C)NC(=O)N(C)C[C@H]1Oc2c(NS(C)(=O)=O)cccc2C(=O)N([C@H](C)CO)C[C@H]1C
  -29 | 0.085 | 2.1 | -3
> C[C@H]1CN([C@@H](C)CO)C(=O)Cc2cc(NC(=O)Nc3ccc(C(F)(F)F)cc3)ccc2O[C@@H]1CN(C)Cc1ccc(Cl)c(Cl)c1
  -8 | 0.16 | · | 9
> C[C@@H]1CCCCO[C@H](CN(C)Cc2ccc(C(F)(F)F)cc2)[C@@H](C)CN([C@H](C)CO)C(=O)c2cc(NC(=O)c3ccccc3)ccc2O1
  7 | 0.28 | -2.2 | 30
> Nc1ccc2c3c(cccc13)C(=O)NC2=O
  -29 | 0.26 | · | -13
> Cc1ccc(S(=O)(=O)Nc2cccc3c2O[C@@H](CN(C)C(=O)NC(C)C)[C@@H](C)CN([C@@H](C)CO)C3=O)cc1
  -9 | -0.2 | 2.6 | 2
> C[C@H](CO)N1C[C@H](C)[C@@H](CN(C)C)Oc2c(NC(=O)c3ccc(-c4nccs4)cc3)cccc2C1=O
  -4 | -0.33 | -0.8 | -5
> C[C@H]1CN([C@@H](C)CO)C(=O)Cc2cc(NC(=O)CCCCCC(=O)Nc3ccccc3N)ccc2O[C@@H]1CN(C)S(C)(=O)=O
  · | 0.2 | 0.2 | 1
> C[C@@H]1CN([C@H](C)CO)C(=O)c2cccc(NS(=O)(=O)c3ccccc3)c2O[C@@H]1CN(C)Cc1ccc(C(=O)Nc2ccccc2N)cc1
  · | -0.28 | -1.1 | 17
> Cc1sc2nc(SCC(=O)NCc3ccco3)n(C)c(=O)c2c1C
  · | · | 0.6 | -4
> C[C@@H]1CN([C@@H](C)CO)C(=O)c2cccc(NC(=O)Nc3cccc4ccccc34)c2O[C@H]1CN(C)CC1CC1
  1 | -0.25 | 0.2 | 21
> C[C@H]1CN([C@@H](C)CO)C(=O)Cc2cc(NC(=O)Cc3cn(C)c4ccccc34)ccc2O[C@H]1CN(C)C(=O)Nc1cccc2ccccc12
  -1 | -1.1 | -1.1 | 5
> COc1ccccc1-n1c(CSc2nc3cc(C(=O)N4CCCC4)ccc3s2)nc2ccccc2c1=O
  · | · | -0.5 | -9
> CC(C)NC(=O)Nc1ccc2c(c1)C(=O)N([C@H](C)CO)C[C@H](C)[C@@H](CN(C)C(=O)Nc1ccc3c(c1)OCO3)O2
  -47 | 0.1 | 0.5 | -4
> O=C(CSc1ncn[nH]1)Nc1ccc2c(c1)OCCO2
  · | · | 2.6 | -61
> C[C@@H]1CCCCO[C@@H](CN(C)CC2CC2)[C@@H](C)CN([C@H](C)CO)C(=O)c2cc(NS(=O)(=O)c3ccc(F)cc3)ccc2O1
  3 | -0.29 | · | -8

(listing goes on)
The line under a structure holds: Hedgehog inh | YB-1 expr inh | PD-1 reverse act | MITF inh
> Cc1ccc(S(=O)(=O)N(C)C[C@H]2Oc3c(NS(=O)(=O)c4ccc(F)cc4)cccc3C(=O)N([C@H](C)CO)C[C@H]2C)cc1
  -51 | -0.059 | · | -6
> C[C@H]1CN([C@@H](C)CO)C(=O)Cc2cc(NC(=O)Nc3ccc4c(c3)OCO4)ccc2O[C@@H]1CN(C)Cc1ccc(C(F)(F)F)cc1
  -41 | 0.23 | 0.0 | 1
> O=C(CS(=O)(=O)c1ccccc1)Nc1ccc2c(c1)OCCO2
  · | · | -2.5 | -89
> C[C@@H]1CN([C@H](C)CO)C(=O)c2cccc(NC(=O)c3nc4ccccc4s3)c2O[C@@H]1CN(C)CC1CCCCC1
  3 | -0.43 | -2.0 | -15
> C[C@@H]1CN([C@H](C)CO)C(=O)c2cc(NC(=O)Nc3cccc4ccccc34)ccc2O[C@@H]1CN(C)Cc1ccc(C(F)(F)F)cc1
  0 | 0.14 | -5.4 | 47
> CC1(C)CC(=O)C2=C(C1)Nc1ccc3ccccc3c1C2c1cccnc1 (configuration not stated)
  ? | 0.38 | -1.9 | 64

An excerpt from above, reduced to YB-1 expr inh, PD-1 reverse act and Hedgehog inh:
canonical_smiles,YB-1 expr inh,PD-1 reverse act,Hedgehog inh
C[C@@H]1CN([C@H](C)CO)C(=O)c2cc(NC(=O)Nc3cccc4ccccc34)ccc2O[C@@H]1CN(C)Cc1ccc(C(F)(F)F)cc1,0.14,-5.4,0
C[C@@H]1CN([C@H](C)CO)C(=O)c2cccc(NC(=O)c3nc4ccccc4s3)c2O[C@@H]1CN(C)CC1CCCCC1,-0.43,-2.0,3
Cc1ccc(S(=O)(=O)N(C)C[C@H]2Oc3c(NS(=O)(=O)c4ccc(F)cc4)cccc3C(=O)N([C@H](C)CO)C[C@H]2C)cc1,-0.059,·,-51
CC1(C)CC(=O)C2=C(C1)Nc1ccc3ccccc3c1C2c1cccnc1 (configuration not stated),0.38,-1.9,?

One compound at a time (already shown). Values in the order: Hedgehog inh	YB-1 expr inh	PD-1 reverse act	MITF inh
`O=C(CS(=O)(=O)c1ccccc1)Nc1ccc2c(c1)OCCO2` is listed with ·	·	-2.5	-89
`C[C@@H]1CN([C@H](C)CO)C(=O)c2cccc(NC(=O)c3nc4ccccc4s3)c2O[C@@H]1CN(C)CC1CCCCC1` is listed with 3	-0.43	-2.0	-15

From PubChem BioAssay

Some of the compounds tested. The share of hits here may be higher or lower than overall.
